Beta2AR agonist: agonists of human beta-2 adrenergic receptor inducing internalization. P07550. Am2.2-beta2AR cells, FAP receptor internalization, flow cytometry; reference of the scale not given here. response, % (concentration not given with the values). 0.43% of 340,000 active;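 active means response above a set limit, near 3 SD of response in nonfluorescent compounds, cut at about 42% in these data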;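 further: stock transfer was 100 nL into about 11 µL; a reference agonist was the positive control; negative values mostly stem from fluorescent compounds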
FGF22 binding: FGF22 (human) thermal shift binding; Q9HCT0; recombinant FGF22 thermal shift, SYPRO orange fluorescence; percent of sucrose octasulfate shift, DMSO zero; calls only at 9.99 µM; 1.5% of 340,000 active; AID 651658;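 active means melting point raised past a set limit in the mean and every replicate; three in four hits are not shown here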
Target sequence (Q9HCT0 whole entry, looked up): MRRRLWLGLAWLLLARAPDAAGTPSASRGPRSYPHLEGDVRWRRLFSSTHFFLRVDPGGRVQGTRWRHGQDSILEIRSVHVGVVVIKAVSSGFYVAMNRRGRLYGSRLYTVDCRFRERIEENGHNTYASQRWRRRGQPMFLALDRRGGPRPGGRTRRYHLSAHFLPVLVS
Ecoli growth: blocks Escherichia coli growth; OD600, 23 h; stronger effect = lower value; OD600 absorbance (concentration not given with the values); 0.21% of 330,000 active; AID 1053175;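 active means OD600 absorbance below the run mean of sample wells minus 3.6 SD, in any replicate, cut at about 0.56 in these data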;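 further: stock transfer was 300 nL into about 60 µL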
ALR inh: inhibitors of human sulfhydryl oxidase ALR; P55789; purified ALR, DTT oxidation, H2O2 HRP-luminol luminescence; inhibition, % (test concentration not listed); 3.8% of 290,000 active;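 active means mean and each replicate at 75% or more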;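 further: stock transfer was 7.5 nL into about 7.5 µL; 0% = neutral wells and 100% = wells with inactivated enzyme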
HNF4A DNA FP: change in binding of human HNF4 alpha to DNA | HNF4a-FITC DNA binding, fluorescence polarization, 1 h | activity change, % at 10 µM | 0.3% of 360,000 active; in the data active means activity change above about 30%, passing the limit was not always enough;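 further: controls were the assay level and a saturating level of protein; the project sought stronger binding though the title names inhibitors; some compounds called inactive have numbers as strong as hits; positive values seem to mean higher polarization but the record does not say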
Target sequence (P41235 whole entry, looked up): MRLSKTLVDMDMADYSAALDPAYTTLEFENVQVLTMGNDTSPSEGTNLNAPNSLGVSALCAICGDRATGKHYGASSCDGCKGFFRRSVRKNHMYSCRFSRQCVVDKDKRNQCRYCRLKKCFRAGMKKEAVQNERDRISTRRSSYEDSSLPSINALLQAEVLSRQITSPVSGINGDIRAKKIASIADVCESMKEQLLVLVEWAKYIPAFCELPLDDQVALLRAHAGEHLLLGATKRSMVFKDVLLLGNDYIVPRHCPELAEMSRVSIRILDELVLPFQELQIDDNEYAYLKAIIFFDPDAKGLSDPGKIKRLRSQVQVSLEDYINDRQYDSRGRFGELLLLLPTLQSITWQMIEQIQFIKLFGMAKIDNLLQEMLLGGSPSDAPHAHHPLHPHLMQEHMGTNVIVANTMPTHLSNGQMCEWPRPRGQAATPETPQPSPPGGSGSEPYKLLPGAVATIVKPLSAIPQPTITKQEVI
UCH37 DUB inh: blocks the human deubiquitinase UCH37; Q9Y5K5; purified proteasome/UCH37, Ub-AMC cleavage fluorescence; inhibition, % (concentration not given with the values); 0.33% of 330,000 active;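 active means mean of two replicates above 20%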;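 further: 0% = compound-free wells with enzyme and 100% = wells lacking proteasome; stock transfer was 100 nL into about 20 µL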
Target sequence (Q9Y5K5 whole entry, looked up): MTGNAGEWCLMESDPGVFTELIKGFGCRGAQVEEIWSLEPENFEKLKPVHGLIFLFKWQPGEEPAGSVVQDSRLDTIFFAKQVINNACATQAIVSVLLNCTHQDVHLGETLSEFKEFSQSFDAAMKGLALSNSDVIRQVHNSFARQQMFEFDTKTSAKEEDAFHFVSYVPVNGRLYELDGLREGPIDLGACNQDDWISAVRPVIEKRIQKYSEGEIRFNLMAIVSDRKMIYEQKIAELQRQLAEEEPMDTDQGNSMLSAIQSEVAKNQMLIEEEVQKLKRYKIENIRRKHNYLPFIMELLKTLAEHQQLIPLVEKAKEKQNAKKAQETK
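Test system – human UCH37 enzyme supplied as purified proteasome complex · Incubation – 30 min preincubation with enzyme, 25 min cleavage at room temperature · Detection – AMC fluorescence from Ub-AMC cleavage, excitation 355 nm, emission 460 nm · Benchmarks – no-proteasome wells (full inhibition) and compound-free wells (no inhibition)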
LANA-H2A inh: blocks KSHV LANA binding to histone H2A/H2B; inhibition, % (concentration not given with the values); 0.6% of 320,000 active; Q9QR71; cell-free LANA-H2A/H2B peptide, fluorescence polarization; in the data active means inhibition mostly above about 10%, no sharp cut-off; inactive means mostly below about 6.7%;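 further: stock transfer was 7.5 nL into about 10 µL; 0% = median of vehicle wells and 100% = median of positive control wells; one replicate is shown; the record names a cut of 25% in any replicate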
Starred values were filed as active, the others as inactive; i = inactive; x = not tested or not shown; & = joins results of further samples. A portion of the library; rates above refer to the full screens.

SMILES	Beta2AR agonist	FGF22 binding	Ecoli growth	ALR inh	HNF4A DNA FP	UCH37 DUB inh	LANA-H2A inh
Cc1cccc(NC(=O)C2CC2c2ccccc2)c1C (centres undefined)	-5.9	i	x	-9.5	1.5	x	0.5
COc1ccc(-c2nc3cnccn3c2NC2CCCCC2)cc1-c1cccc(Cl)c1	-1.6	i	x	3.7	3.2&15.2	x	1.2
Cc1ccccc1N1CCN(C(=S)c2ccccc2)CC1	0.4	x	0.701	-8.5	-2.5	1.8	-0.3
COc1ccc(-c2cc(C(F)(F)F)nc(-n3cc(Br)cn3)n2)cc1	-6.3	x	0.692	44.5	2.4	-122.0	2.6
COC(=O)c1sc2nc(C)nc(SCC(=O)N3CCC(C(=O)O)CC3)c2c1C	-1.9	i	0.669	3.0	-0.1	3.6	-5.3
O=C(O)c1ccc(S(=O)(=O)NC2CCCCCC2)cc1	10.1	i	0.681	2.0	-3.0	0.1	-3.5
CCN(CC)CCN1C(=O)C(=O)/C(=C(/O)c2ccncc2)C1c1ccccc1 (centres undefined)	-3.7	x	0.688	-23.5	3.5	11.6	2.1
CN(C)/C=C/C(=O)c1ccc([N+](=O)[O-])c(CS(=O)(=O)c2ccccc2)c1	0.6	i	0.692	-5.9	-2.7	10.9	2.3
O=S(=O)(c1ccc(Cl)nc1)N1CCCCC1	2.7	i	0.65	x	0.0	0.6	-5.6
c1ccc2nc3ccccc3nc2c1	-4.7	i	0.665	x	0.2	7.8	-0.6
COc1ccccc1CC(=O)Nc1cc(OC)c(NC(=O)c2ccccc2)cc1OC	14.9	i	0.69	-28.7	6.6	-34.1	-4.3
CCCCn1c(=O)[nH]c(=O)c2c1nc(-c1ccc(C#N)cc1)n2C1CCCC1	6.6	x	0.765	-4.1	1.9	-464.3	-1.9
CCOc1cccc(C=NNc2ccc(S(=O)(=O)Nc3ccccc3C(=O)O)cc2[N+](=O)[O-])c1O	3.7	i	0.723	57.4	-5.3	8.3	-0.7
COc1ccc(C(CNC(=O)c2ccc(Cl)c(S(=O)(=O)N3CCCC3)c2)N2CCCC2)cc1 (centres undefined)	-3.3	i	0.693	0.4	11.1	2.1	4.7
NC(=O)COc1ccc(C(=O)NCC2(N3CCOCC3)CCCCC2)cc1	5.8	i	0.683	-3.4	1.4	-1.2	0.0
O=c1c2ccccc2nnn1Cc1nnc(-c2ccccc2Br)o1	-5.9	x	0.712	-14.4	3.3	-1.4	-5.1
O=C(Cn1cnc2c(OCc3ccccc3)ncnc21)NCc1nc2ccccc2[nH]1	-8.7	i	0.67	x	0.3	0.3	0.4
O=C(O)CCS(=O)(=O)c1ccccc1Cl	-3.7	i	0.711	-8.0	2.8	1.9	-2.1
O=C(/C=C/c1ccc(F)cc1)NNC(=O)CCN1CCN(Cc2ccccc2)CC1	-5.9	i	0.651	-15.2	0.9	1.1	3.9
COc1cc(OC)c(/C=N/NC(=O)c2ccncc2)cc1Br	-4.1	i	x	11.2	3.5	x	4.2
CC1(C)Cc2c(cnn2-c2ccccc2)-c2c1c1ccccc1n2CC(O)CBr (centres undefined)	9.3	x	0.785	1.6	-2.2	-163.0	-4.3
O=C(Nc1cc2c(cc1Br)OCCO2)c1ccc(=O)[nH]c1	10.7	i	0.676	7.5	-1.5	-1.6	2.1
COC(=O)C1=CN(CCCN2CCCC2=O)C=C(C(=O)OC)C1c1ccccc1C(F)(F)F	0.1	x	0.709	-2.4	-1.7	-347.4	1.3
Cn1c(=O)c(=O)n(C)c2cc(N3CCOCC3)c(NS(=O)(=O)c3ccc([N+](=O)[O-])cc3)cc21	-7.7	i	0.678	-3.9	1.8	11.8	-7.7
Cc1nc(C(=O)N/N=C/c2[nH]ncc2Br)cs1	16.1	i	x	x	-1.8	x	1.3
Cn1c(N)c(C(C[N+](=O)[O-])c2c(F)cccc2Cl)c(=O)n(C)c1=O (centres undefined)	4.1	i	0.673	x	-1.6	4.2	2.6
CCOc1ccc(/C=C/C(=O)Nc2ccc3[nH]c(=O)[nH]c3c2)cc1	1.4	x	x	-1.3	-1.7	x	3.1
OCc1ccc(O)c2ncccc12	7.4	x	0.784	-18.6	1.1	-3.6	-0.4
O=C(Nc1nnc(S(=O)(=O)N2CCOCC2)s1)c1ccccc1F	-1.2	i	0.693	-2.0	2.2	6.3	-2.8
CS(=O)(=O)N1CCC(C(=O)Nc2ccc(Cl)c(C(F)(F)F)c2)CC1	-4.4	x	0.668	-2.4	-1.9	3.4	5.3
N#Cc1c(NCc2ccccc2)ccnc1NCc1cccnc1	-2.2	x	0.688	-12.7	2.3	5.8	-0.4
C/C(Cn1nnc([N+](=O)[O-])n1)=N\NC(=O)c1ccccc1	-2.6	i	x	-4.8	-1.1	x	-0.9
Clc1ccc(C2CC(c3ccccc3)Nc3ncnn32)cc1 (centres undefined)	3.0	i	0.771	-12.8	4.0	3.5	-3.3
Cc1c(C(=O)Nc2cnccn2)oc2ccccc12	-24.0	i	0.733	-5.2	3.6	5.2	6.6
O=C(N/N=C/c1ccsc1)c1cc(O)cc(O)c1	8.1	x	x	64.3	0.4	x	-2.2
CCCCc1cc(=O)oc2cc(OCC(=O)NCCN3CCOCC3)ccc12	-14.5	i	0.7	-1.1	5.5	-16.3	15.3*
CSCCC(NC(=O)c1ccco1)C(=O)NNC(=O)c1n[nH]c(=O)c2ccccc12 (centres undefined)	-1.6	i	0.629	-5.8	1.4	-2.3	3.5
COc1ccccc1C1NC(=O)NC(C)=C1C(=O)OC1CCCC(C)C1 (centres undefined)	-3.2	i	0.691	-6.8	1.5	-7.5	-2.3
COC(=O)CC/C(O)=C1\C(=O)CC(C)(C)CC1=NCc1nc2ccccc2[nH]1	-7.4	i	0.724	-7.7	0.7	1.7	-3.7
CCOC(=O)N1CCC(N2CCCC(C(=O)c3cccc(OC(C)C)c3)C2)CC1 (centres undefined)	-11.5	i	0.645	-0.6	1.5	-4.5	-0.9
CCOc1ccc(-n2c(SCC(=O)NC)nnc2-c2ccco2)cc1	-5.9	i	0.669	-2.4	2.3	0.0	-3.9
COc1cccc(CN2CCC(n3nccc3NC(=O)CCOc3ccccc3)CC2)c1	4.0	i	0.683	1.1	-0.5	6.7	0.5
CCc1ccc(OCC(=O)NC(NC(=S)Nc2ccc(C)cc2C)C(Cl)(Cl)Cl)cc1 (centres undefined)	-7.1	x	0.822	-1.0	1.3	2.5	3.9
S=C1NC[C@H](Cc2ccccc2)N1CC1CCN(CCCCc2ccccc2)CC1	-11.1	i	x	x	-1.1	x	x
CCOC(=O)C(N)CSC1CC(=O)N(CCc2ccccc2)C1=O (centres undefined)	22.3	i	0.643	-3.1	0.6	1.5	0.7
Cc1ccc(S(=O)(=O)N2[C@@H](c3ccc(C#N)cc3)C(C(=O)O)=C[C@H]2C(C)(C)C)cc1	4.5	i	0.66	x	3.1	1.4	-7.0
CCOC(=O)c1ccc2[nH]c3c(c2c1)CCCCC3=O	3.2	i	0.724	-1.8	0.8	-36.6	3.2
CN(C)S(=O)(=O)c1cccc(NC(=O)CCNC(=O)Nc2ccccc2)c1	-1.8	i	0.66	-30.3	-0.1	5.3	-0.2
COc1ccccc1CCC(=O)NNC(=O)c1ccncc1	1.4	i	0.683	0.8	2.8	2.1	-2.1
CC(C)CNC(=O)c1ccc2c(c1)C(=O)N(Cc1ccco1)C2=O	-3.8	i	0.631	-9.5	-2.3	4.2	-3.4
Cn1c(=O)oc2cc(S(=O)(=O)N3CCCC(C(=O)Nc4ccc5c(c4)OCCO5)C3)ccc21 (centres undefined)	-17.5	i	0.716	-2.3	-10.4	2.7	-0.5
NS(=O)(=O)c1ccc(NC(=O)c2ccccc2Cl)cc1	2.1	x	0.72	-2.2	0.6	0.3	-3.7
CCOc1cccc(C(=O)Nc2cccc(-c3nnc(-c4ccccc4)o3)c2)c1	13.6	i	0.719	-1.0	0.9	-0.3	-1.2
Cc1ccc2cc(CN(c3cccc(C)c3C)S(=O)(=O)c3ccccc3)c(=O)[nH]c2c1	-6.6	i	0.698	-10.0	2.8	-9.4	15.1
CCC(C)[C@H](NC(=O)NCCCn1ccnc1)C(=O)OC (some centres undefined)	3.9	i	0.672	-6.4	-3.1	1.4	13.6
CC(C)=CCC[C@](C)(O)C1CC[C@]2(C)C1C(O)CC1[C@@]3(C)CCC(O)C(C)(C)C3C(O[C@@H]3OC(CO)C(O)C(O)C3O[C@@H]3OC(C)C(O)C(O)C3O)C[C@]12C (some centres undefined)	-2.1	i	x	1.8	4.7	2.1	0.8
O=C(COc1ccc(F)cc1Cl)N1CCN(C(=O)c2cccs2)CC1	-3.6	i	0.711	-5.5	-2.4	3.3	3.8
Cc1cccc(OCC(=O)Nc2ccc3c(c2)OCCO3)c1	6.2	x	0.728	-28.2	0.2	1.4	-3.7
CC(O)c1nc2ccccc2n1Cc1nnc(-c2ccc(Cl)cc2)o1 (centres undefined)	-4.7	x	0.669	-7.9	3.8	0.8	-3.9
CC(=O)C(C(C)=O)c1c(Cl)c(O)c(O)c2c(C(=O)c3ccccc3)coc12	2.3	x	x	x	0.2	-0.8	-2.5

Remaining list, next part.
SMILES	Beta2AR agonist	FGF22 binding	Ecoli growth	ALR inh	HNF4A DNA FP	UCH37 DUB inh	LANA-H2A inh
c1cncc(-c2cn(C[C@H]3CC[C@H](Cn4cc(-c5cccnc5)nn4)O3)nn2)c1	2.1	i	0.672	x	1.6	-1.6	x
C[C@H]1[C@H]2c3nc4ccccc4n3C[C@H]1ON2C1CCCCC1	-2.9	i	x	x	-1.1	5.5	-0.7
CN(C)CCNc1nc2c(c(=O)[nH]c(=O)n2C)n1CC(O)COc1ccc(Cl)cc1 (centres undefined)	-2.3	x	0.69	14.6	-1.9	4.2	-2.5
COC(C[C@@H](O)C[C@H](O)COCc1ccccc1)OC	0.6	i	x	x	3.0	2.5	x
CN(C)c1ncnc2c1ncn2C1CCCCO1 (centres undefined)	-1.8	i	0.667	x	2.1	1.0	x
CCC1(C)Cc2c(sc3nnn(CC(=O)Nc4ccc(Cl)cc4)c(=O)c23)CO1 (centres undefined)	-5.7	x	0.713	-1.6	7.5	2.6	-3.6
CCN(Cc1nc(-c2cccc(C)c2)no1)C(=O)c1ccco1	12.0	i	0.678	1.1	3.6	0.9	-8.7
O=C(NC1CCCCC1)c1cc(Cl)nc2ccccc12	-3.9	x	0.685	28.3	1.9	2.4	-2.2
CCn1c(COc2ccccc2)nnc1SCC(=O)Nc1ccc(N2CCOCC2)cc1	3.7	i	0.643	29.3	7.7	-0.6	-8.5
CCOC(=O)N1CCN(C(=O)c2cnsn2)CC1	-5.8	x	0.734	-2.0	-3.2	1.7	3.1
CSc1ncc(C(=O)Nc2cccc(Cl)c2)c(C)n1	-4.5	i	0.663	-5.5	3.0	-6.6	-0.5
O=C(O)CNC(=O)CC12CC3CC(CC(C3)C1)C2	-2.4	x	0.73	2.7	3.4	1.0	-8.9
CC(=O)Nc1ccc(NC(=O)C(C)OC(=O)CNS(=O)(=O)/C=C/c2ccc(C)cc2)cc1 (centres undefined)	1.2	i	0.689	-3.4	3.4	2.3	2.7
CCCc1c(C(=O)N/N=C/C(C)=C/c2ccccc2)nnn1-c1nonc1N	-4.0	i	x	-1.3	-3.4	x	-2.2
C=CC(C)(C)O[C@@H]1O[C@H](CO)[C@@H](O)[C@H](O)[C@H]1O	2.8	i	x	-2.0	1.5	4.5	8.0
CC(C)[C@H](NC(=O)c1ccc(Cl)cc1Cl)C(=O)NNC(=O)c1ccco1	-3.6	i	0.68	-4.9	-5.7	6.4	1.3
Cc1ccc(OCc2nnc(NC(=O)OCC(C)C)s2)cc1	-2.7	x	0.732	-1.9	0.3	1.0	1.6

Record cards, as listed above. Order of screens: Beta2AR agonist | FGF22 binding | Ecoli growth | ALR inh | HNF4A DNA FP | UCH37 DUB inh | LANA-H2A inh
CC(C)[C@H](NC(=O)c1ccc(Cl)cc1Cl)C(=O)NNC(=O)c1ccco1 is listed with -3.6 | i | 0.68 | -4.9 | -5.7 | 6.4 | 1.3
CCCc1c(C(=O)N/N=C/C(C)=C/c2ccccc2)nnn1-c1nonc1N is listed with -4.0 | i | x | -1.3 | -3.4 | x | -2.2

Screens deposited in PubChem by several laboratories.
